Source: PubChem (several laboratories)
AF4-AF9 inh – inhibitors of AF4 peptide binding to AF9, primary screen, biochemical, AlphaScreen, biotin-AF4 peptide, FLAG-AF9, single point | AID 651704, 2012 | inhibition, % at 10 µM | 350,000 compounds, 0.47% hits | Protein AF-9 (Homo sapiens), P42568;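 active = every replicate reaching a set inhibition limit, whatever the replicate mean, cut at about 25% in these data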;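 note: 0% = plate neutral control median and 100% = total signal loss; the record names both 10 and 1 µM as test concentration; the first replicate is given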
Target sequence (P42568 whole entry, looked up): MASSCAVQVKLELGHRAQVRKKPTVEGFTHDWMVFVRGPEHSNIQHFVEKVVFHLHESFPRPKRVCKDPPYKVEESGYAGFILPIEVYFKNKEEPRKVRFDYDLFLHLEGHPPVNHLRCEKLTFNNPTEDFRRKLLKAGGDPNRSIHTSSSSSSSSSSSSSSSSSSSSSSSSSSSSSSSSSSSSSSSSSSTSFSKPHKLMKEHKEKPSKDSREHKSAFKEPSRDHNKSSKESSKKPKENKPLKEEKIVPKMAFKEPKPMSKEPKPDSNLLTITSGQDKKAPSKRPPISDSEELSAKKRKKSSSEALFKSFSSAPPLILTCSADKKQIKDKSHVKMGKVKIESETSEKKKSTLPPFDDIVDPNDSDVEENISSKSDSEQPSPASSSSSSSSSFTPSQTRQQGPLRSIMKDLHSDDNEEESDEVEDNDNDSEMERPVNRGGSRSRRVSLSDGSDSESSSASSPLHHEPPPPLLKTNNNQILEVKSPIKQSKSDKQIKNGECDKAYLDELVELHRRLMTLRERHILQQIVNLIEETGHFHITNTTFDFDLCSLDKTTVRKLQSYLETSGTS
Vif A3G – inhibitors of Vif binding to APOBEC3G peptide, primary screen, biochemical, TR-FRET, GST-Vif 1-94, biotin-A3G peptide, dose response retest (AID 1117319) | TR-FRET GST-Vif / biotin-A3G peptide binding; higher % means a stronger effect; test concentration not given here; strong numbers were not always called active | one-dose inhibition, %; IC50 in µM for titrated hits | 260,000 compounds, 0.57% hits | Virion infectivity factor (Human immunodeficiency virus type 1 group M subtype B (isolate …;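 active = above the screen mean plus three standard deviations and confirmed in dose response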;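 note: Vif residues 1-94 fused to GST binding biotinylated APOBEC3G peptide 110-148; 0% = full assay without inhibitor and 100% = GST in place of GST-Vif; retest series ran down from 100 µM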
ALR H2O2 inh – inhibitors of human ALR sulfhydryl oxidase, primary screen, biochemical, H2O2 detection, HRP-luminol luminescence, single point; FAD-linked sulfhydryl oxidase ALR (Homo sapiens), P55789; purified ALR, DTT oxidation; inhibition, % (test concentration not listed); 290,000 compounds, 3.8% hits; AID 485317, 2010;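 active = mean and each replicate at 75% or more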;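 note: stock transfer was 7.5 nL into about 7.5 µL; 0% = neutral wells and 100% = wells with inactivated enzyme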
FGF22 binding – binders of human FGF22 protein, primary screen, FGF22 synaptogenesis inhibitor project, biophysical, thermal shift, single point. Fibroblast growth factor 22 (Homo sapiens), Q9HCT0. recombinant FGF22 thermal shift, SYPRO orange fluorescence; percent of sucrose octasulfate shift, DMSO zero. calls only at 9.99 µM. 340,000 compounds, 1.5% hits;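 active = melting point raised past a set limit in the mean and every replicate; three in four hits are not shown here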
HNF4A DNA FP – change in binding of human HNF4A to DNA, primary screen, biochemical, fluorescence polarization, FITC-DNA | Hepatocyte nuclear factor 4-alpha (Homo sapiens), P41235 | 1 h | activity change, % at 10 µM | 360,000 compounds, 0.3% hits | AID 1224865, 2016; in the data active = activity change above about 30%, passing the limit was not always enough;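 note: controls were the assay level and a saturating level of protein; the project sought stronger binding though the title names inhibitors; some compounds called inactive have numbers as strong as hits; positive values seem to mean higher polarization but the record does not say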
Target sequence (P41235 whole entry, looked up): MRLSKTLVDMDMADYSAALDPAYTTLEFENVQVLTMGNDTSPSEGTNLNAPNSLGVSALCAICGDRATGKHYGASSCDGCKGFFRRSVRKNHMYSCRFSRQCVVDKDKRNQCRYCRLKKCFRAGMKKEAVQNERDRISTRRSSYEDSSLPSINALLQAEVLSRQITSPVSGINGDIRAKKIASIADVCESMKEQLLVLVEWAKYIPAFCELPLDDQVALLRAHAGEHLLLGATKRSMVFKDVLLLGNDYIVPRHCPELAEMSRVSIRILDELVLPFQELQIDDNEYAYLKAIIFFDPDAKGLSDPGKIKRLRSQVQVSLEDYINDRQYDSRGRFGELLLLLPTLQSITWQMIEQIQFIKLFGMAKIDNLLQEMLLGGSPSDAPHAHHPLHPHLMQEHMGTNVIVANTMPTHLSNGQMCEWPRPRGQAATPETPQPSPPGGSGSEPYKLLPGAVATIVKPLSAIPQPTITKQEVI
E coli growth – E. coli growth inhibition, primary screen, OD600; Escherichia coli growth, 23 h; stronger effect = lower value; 330,000 compounds, 0.21% hits; OD600 absorbance (concentration not given with the values); AID 1053175, 2014;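 active = OD600 absorbance below the run mean of sample wells minus 3.6 SD, in any replicate, cut at about 0.56 in these data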;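 note: stock transfer was 300 nL into about 60 µL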
rRNA inh HTS – reduced GFP signal of wild-type E. coli, primary screen, bacterial rRNA inhibitor project, GFP/RFP fluorescence, OD600, single point | E. coli WT GFP vs humanized-ribosome RFP mutants, 24 h; stronger effect = lower value; DMSO median 0, no signal -100 | GFP signal change (wild-type ribosome), % (test concentration not listed) | 350,000 compounds, 1.6% hits | AID 720706, 2013;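 active = significant combined selectivity score with lowered wild-type GFP, culture density cut under 30%, mutant RFP and density less affected; inactive = any of these conditions unmet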; note: one replicate is shown; some compounds called inactive have numbers as strong as hits
rRNA inh HTS OD600 – recorded beside rRNA inh HTS, whose call it bears; OD600 change, %; measured here: OD600 growth;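 optical density of the mix in the first replicate; 0 = DMSO median and -100 = no signal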
rRNA inh HTS RFP – second read-out of rRNA inh HTS, no call of its own (marks repeat the call); RFP signal change, %; measured here: RFP humanized mutant strains;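 first replicate; 0 = DMSO median and -100 = no signal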
The depositor's hits bear a star; & = joins results of further samples. The list is partial. The share of hits here may be higher or lower than overall.

For Cc1cc2oc3c(c(=O)c2cc1C)C(c1ccc(F)cc1)N(CCCN1CCOCC1)C3=O (configuration not stated) the results were AF4-AF9 inh -4.3, Vif A3G 3.1%, ALR H2O2 inh 7.4, FGF22 binding inactive, HNF4A DNA FP 3.1, E coli growth 0.719, rRNA inh HTS 2.1, rRNA inh HTS OD600 -1.9 and rRNA inh HTS RFP 7.1.
Screening C[C@@H]1CN([C@@H](C)CO)C(=O)Cc2cc(NC(=O)c3ccncc3)ccc2O[C@H]1CN(C)Cc1ccccc1 returned AF4-AF9 inh -4.4, FGF22 binding inactive, rRNA inh HTS -1.4, rRNA inh HTS OD600 3.2 and rRNA inh HTS RFP -0.3.
For c1ccc2[nH]c(CCCc3nc4ccccc4[nH]3)nc2c1 the results were AF4-AF9 inh -0.9, Vif A3G 9.8%, ALR H2O2 inh -2.4, FGF22 binding inactive, HNF4A DNA FP -0.5, E coli growth 0.59, rRNA inh HTS -5.5, rRNA inh HTS OD600 1.4 and rRNA inh HTS RFP 4.4.
Screening CC1CCC(NC(=O)c2nn(C)c(=O)c3ccccc23)CC1 (configuration not stated) returned AF4-AF9 inh -3.8, FGF22 binding inactive, HNF4A DNA FP -3.1, rRNA inh HTS 2.9, rRNA inh HTS OD600 1.8 and rRNA inh HTS RFP -0.5.
`CC(C)(C)n1ncc2c(=O)n(CC(=O)NCc3ccc(F)cc3)cnc21` gave Vif A3G 18.6%, ALR H2O2 inh -5.2, HNF4A DNA FP 0.7 and E coli growth 0.733.
O=C(COC(=O)CC12CC3CC(CC(Br)(C3)C1)C2)NC(=O)NCc1ccco1 was read as Vif A3G 3.2%, ALR H2O2 inh -4.1, HNF4A DNA FP -1.5 and E coli growth 0.735.
`Cc1ccc(C(=O)Nc2ccc3c(c2)OCCO3)cc1` gave AF4-AF9 inh -8.0, ALR H2O2 inh -4.5, FGF22 binding inactive, HNF4A DNA FP 0.0, E coli growth 0.601, rRNA inh HTS -3.6, rRNA inh HTS OD600 -1.9 and rRNA inh HTS RFP -1.7.
For COC(=O)/C(=C/c1ccco1)NC(=O)c1ccccc1 the results were AF4-AF9 inh -69.1, Vif A3G 11.2%, FGF22 binding inactive, HNF4A DNA FP -2.5, E coli growth 0.705, rRNA inh HTS 23.8, rRNA inh HTS OD600 8.8 and rRNA inh HTS RFP -1.2.
Screening CCC(=O)N(C)CCc1cc2c(c(OC)c1/C=N/NC(=O)c1ccncc1)OCO2 returned AF4-AF9 inh 1.2, ALR H2O2 inh -3.0, FGF22 binding inactive, HNF4A DNA FP 2.5, rRNA inh HTS 7.7, rRNA inh HTS OD600 7.2 and rRNA inh HTS RFP -0.5.
`CCC(=O)Nc1ccc2c(c1)C(=O)N(C)C[C@H](OC)[C@H](C)CN(Cc1ccccc1OC)[C@H](C)CO2` gave AF4-AF9 inh -6.9, FGF22 binding inactive, rRNA inh HTS 5.1, rRNA inh HTS OD600 -2.4 and rRNA inh HTS RFP -0.8.
Screening C[C@H]1CN([C@@H](C)CO)C(=O)c2ccccc2-c2ccccc2CO[C@H]1CN(C)C(=O)Cc1ccccc1 returned AF4-AF9 inh -10.6, FGF22 binding inactive, rRNA inh HTS 0.7, rRNA inh HTS OD600 3.6 and rRNA inh HTS RFP -1.0.
Cc1cccc(NC(=S)NC(=O)CCc2ccccc2)c1 was read as Vif A3G 1.1%, ALR H2O2 inh 2.6, HNF4A DNA FP 0.4 and E coli growth 0.721.

Next section, overlapping the part above by 3 compounds.
`CCC(=O)Nc1ccc2c(c1)C(=O)N(C)C[C@H](OC)[C@H](C)CN(Cc1ccccc1OC)[C@H](C)CO2` gave AF4-AF9 inh -6.9, FGF22 binding inactive, rRNA inh HTS 5.1, rRNA inh HTS OD600 -2.4 and rRNA inh HTS RFP -0.8.
Screening C[C@H]1CN([C@@H](C)CO)C(=O)c2ccccc2-c2ccccc2CO[C@H]1CN(C)C(=O)Cc1ccccc1 returned AF4-AF9 inh -10.6, FGF22 binding inactive, rRNA inh HTS 0.7, rRNA inh HTS OD600 3.6 and rRNA inh HTS RFP -1.0.
Cc1cccc(NC(=S)NC(=O)CCc2ccccc2)c1 was read as Vif A3G 1.1%, ALR H2O2 inh 2.6, HNF4A DNA FP 0.4 and E coli growth 0.721.
`COc1ccc(Cn2ccnc2SCC(=O)Nc2ccccc2OC)cc1` gave AF4-AF9 inh 5.4, Vif A3G -0.7%, ALR H2O2 inh -25.4, FGF22 binding inactive, HNF4A DNA FP 16.1, E coli growth 0.726, rRNA inh HTS -20.2, rRNA inh HTS OD600 -22.5 and rRNA inh HTS RFP -3.3.
Screening C[C@@H]1CN([C@@H](C)CO)C(=O)c2cc(NS(=O)(=O)c3cccs3)ccc2O[C@@H]1CN(C)S(=O)(=O)c1ccc(F)cc1 returned AF4-AF9 inh 3.1, FGF22 binding inactive, rRNA inh HTS -0.1, rRNA inh HTS OD600 -10.9 and rRNA inh HTS RFP 2.5.
Screening C[C@H]1CN([C@@H](C)CO)C(=O)c2cc(C3=CCCCC3)cnc2O[C@@H]1CN(C)C(=O)c1ccccc1 returned AF4-AF9 inh 0.6, FGF22 binding inactive, rRNA inh HTS -10.1, rRNA inh HTS OD600 -8.0 and rRNA inh HTS RFP -1.3.
Screening Cc1ccc(C(=O)Nc2c(C(=O)NCc3ccco3)cnn2-c2ccccc2)cc1 returned Vif A3G -0.4%, ALR H2O2 inh 7.2, HNF4A DNA FP 3.3 and E coli growth 0.69.
`COc1ccc2oc(=O)c(C(=O)NCc3ccccn3)cc2c1` gave Vif A3G 0.5%, ALR H2O2 inh -9.1, HNF4A DNA FP 1.4 and E coli growth 0.676.
For O=C(CSC1CS(=O)(=O)c2cc([N+](=O)[O-])ccc21)NNC(=O)c1ccccc1 (configuration not stated) the results were AF4-AF9 inh 0.0, ALR H2O2 inh -15.8, FGF22 binding inactive, HNF4A DNA FP -3.8, E coli growth 0.631, rRNA inh HTS 3.0, rRNA inh HTS OD600 9.5 and rRNA inh HTS RFP 1.2.
CC(C)NC(=O)N(C)C[C@@H]1Oc2ccc(NC(=O)Nc3ccc(F)cc3)cc2C(=O)N([C@H](C)CO)C[C@@H]1C was read as AF4-AF9 inh -0.5, FGF22 binding inactive, rRNA inh HTS 0.0, rRNA inh HTS OD600 1.9 and rRNA inh HTS RFP 0.3.
For CC=Cc1ccc2n(c1=O)C[C@H]1[C@H](CO)[C@@H](C(=O)N3CCCCC3)N(Cc3ccccc3)[C@@H]21 (mixture of isomers) the results were AF4-AF9 inh -0.4, FGF22 binding inactive, rRNA inh HTS -4.7, rRNA inh HTS OD600 -4.5 and rRNA inh HTS RFP 3.6.
Screening CC1(C)CC(=O)C2=C(C1)N(Cc1cccnc1)C(=O)C2(NC(=O)c1ccc(F)cc1)C(F)(F)F (configuration not stated) returned Vif A3G -23.3%, HNF4A DNA FP -2.0 and E coli growth 0.669.
`CC(=O)N1CCc2cc(S(=O)(=O)N3CCCCC3C)ccc21` (configuration not stated) gave AF4-AF9 inh -3.4, ALR H2O2 inh 1.6, FGF22 binding inactive, HNF4A DNA FP -0.2, E coli growth 0.668, rRNA inh HTS -2.6, rRNA inh HTS OD600 0.8 and rRNA inh HTS RFP 0.0.
Cc1ccc(S(=O)(=O)N(C)C[C@@H]2Oc3c(NS(C)(=O)=O)cccc3C(=O)N([C@H](C)CO)C[C@@H]2C)cc1 was read as AF4-AF9 inh -3.5, Vif A3G -3.9%, FGF22 binding inactive, HNF4A DNA FP 3.3, E coli growth 0.724, rRNA inh HTS -1.0&0.9, rRNA inh HTS OD600 -4.4&6.2 and rRNA inh HTS RFP -2.4&-3.7.
Screening O=C(N1CCc2cc(S(=O)(=O)NC[C@H]3O[C@@H](n4ccc(=O)[nH]c4=O)[C@H](O)[C@@H]3O)ccc2C1)C(F)(F)F returned AF4-AF9 inh -0.9, FGF22 binding inactive, HNF4A DNA FP -0.4, rRNA inh HTS 2.7, rRNA inh HTS OD600 8.0 and rRNA inh HTS RFP -2.7.
Screening CC(OC(=O)c1cccc([N+](=O)[O-])c1)C(=O)NCc1ccc2c(c1)OCO2 (configuration not stated) returned AF4-AF9 inh 0.8, ALR H2O2 inh 1.3, FGF22 binding inactive, HNF4A DNA FP -5.8, E coli growth 0.665, rRNA inh HTS 16.2, rRNA inh HTS OD600 12.4 and rRNA inh HTS RFP -2.3.
O=C(C[C@H]1C[C@H]2c3cc(NC(=O)Nc4ccc(C(F)(F)F)cc4)ccc3O[C@H]2[C@@H](CO)O1)NCC1CC1 was read as AF4-AF9 inh -0.4, FGF22 binding inactive, rRNA inh HTS -8.3, rRNA inh HTS OD600 -2.0 and rRNA inh HTS RFP -0.5.
Screening Cc1ccc(-c2csc(NC(=S)NC(=O)c3ccco3)n2)cc1 returned Vif A3G -4.8%, HNF4A DNA FP -3.0 and E coli growth 0.771.
Screening COCCCNC(=O)c1cc(S(=O)(=O)NCCCN2CCCC2=O)ccc1Cl returned AF4-AF9 inh -2.7, ALR H2O2 inh 0.3, FGF22 binding inactive, HNF4A DNA FP -0.8, E coli growth 0.718, rRNA inh HTS 17.6, rRNA inh HTS OD600 10.8 and rRNA inh HTS RFP 2.0.
For CC(NC(=O)c1cccs1)c1n[nH]c(=S)n1C (configuration not stated) the results were AF4-AF9 inh 6.3, Vif A3G -7.9%, ALR H2O2 inh 4.8, FGF22 binding inactive, HNF4A DNA FP 0.1, E coli growth 0.705, rRNA inh HTS 1.6, rRNA inh HTS OD600 5.0 and rRNA inh HTS RFP -11.6.
`O=C(C[C@@H]1CC[C@@H]2[C@H](COC[C@@H](O)CN2CCc2ccccc2)O1)N1CCC(Cc2ccccc2)CC1` gave AF4-AF9 inh 2.1, FGF22 binding inactive, rRNA inh HTS 3.3, rRNA inh HTS OD600 -28.4 and rRNA inh HTS RFP 2.4.
Screening C[C@@H]1NS(=O)(=O)[C@H]2C[C@@H]3C=C[C@]2(O3)[C@H]1OC(=O)c1ccc(C(C)(C)C)cc1 returned AF4-AF9 inh 3.8, ALR H2O2 inh 1.8, FGF22 binding inactive, HNF4A DNA FP -1.9, rRNA inh HTS 1.3, rRNA inh HTS OD600 -3.2 and rRNA inh HTS RFP -6.3.
Cn1cc(CN2CCC(Oc3ccc(C(=O)N4CCCCC4)cc3)CC2)cn1 was read as AF4-AF9 inh -0.9, ALR H2O2 inh -3.6, FGF22 binding inactive, HNF4A DNA FP 4.2, rRNA inh HTS 14.2, rRNA inh HTS OD600 14.0 and rRNA inh HTS RFP -1.0.
C[C@H]1CN([C@@H](C)CO)C(=O)CCCn2nncc2CO[C@@H]1CN(C)Cc1ccc(C(=O)O)cc1 was read as AF4-AF9 inh -2.9, Vif A3G -6.4%, FGF22 binding inactive, HNF4A DNA FP 1.1, rRNA inh HTS 14.5&1.9, rRNA inh HTS OD600 9.9&1.1 and rRNA inh HTS RFP -0.8&-1.3.
For COCC(=O)Nc1ccc2c(c1)OC[C@H](C)N(Cc1ccccc1)C[C@H](C)[C@H](OC)CN(C)C2=O the results were AF4-AF9 inh 3.8, FGF22 binding inactive, rRNA inh HTS 2.5, rRNA inh HTS OD600 2.9 and rRNA inh HTS RFP -0.9.
